KCNQ2 enhance: enhances the rat KCNQ2 potassium channel | O88943 | CHO-K1 KCNQ2, FluxOR thallium flux fluorescence; stronger effect = higher value | B-score at 10 µM | 310,000 tested, 0.54% active | AID 2239;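 active = fluorescence ratio B-score at least 3 SD of library B-scores, with initial fluorescence B-score within 3 SD, cut at about 5.3 in these data; same plate scores as AID 2156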;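 note: B-score of peak minus minimum over baseline fluorescence ratio after K+ and Tl+ stimulus; positive B-score means potentiation of KCNQ2 with more thallium influx and brighter signal; only the inactives scoring about 0 or higher are listed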
Target sequence (O88943 whole entry, looked up): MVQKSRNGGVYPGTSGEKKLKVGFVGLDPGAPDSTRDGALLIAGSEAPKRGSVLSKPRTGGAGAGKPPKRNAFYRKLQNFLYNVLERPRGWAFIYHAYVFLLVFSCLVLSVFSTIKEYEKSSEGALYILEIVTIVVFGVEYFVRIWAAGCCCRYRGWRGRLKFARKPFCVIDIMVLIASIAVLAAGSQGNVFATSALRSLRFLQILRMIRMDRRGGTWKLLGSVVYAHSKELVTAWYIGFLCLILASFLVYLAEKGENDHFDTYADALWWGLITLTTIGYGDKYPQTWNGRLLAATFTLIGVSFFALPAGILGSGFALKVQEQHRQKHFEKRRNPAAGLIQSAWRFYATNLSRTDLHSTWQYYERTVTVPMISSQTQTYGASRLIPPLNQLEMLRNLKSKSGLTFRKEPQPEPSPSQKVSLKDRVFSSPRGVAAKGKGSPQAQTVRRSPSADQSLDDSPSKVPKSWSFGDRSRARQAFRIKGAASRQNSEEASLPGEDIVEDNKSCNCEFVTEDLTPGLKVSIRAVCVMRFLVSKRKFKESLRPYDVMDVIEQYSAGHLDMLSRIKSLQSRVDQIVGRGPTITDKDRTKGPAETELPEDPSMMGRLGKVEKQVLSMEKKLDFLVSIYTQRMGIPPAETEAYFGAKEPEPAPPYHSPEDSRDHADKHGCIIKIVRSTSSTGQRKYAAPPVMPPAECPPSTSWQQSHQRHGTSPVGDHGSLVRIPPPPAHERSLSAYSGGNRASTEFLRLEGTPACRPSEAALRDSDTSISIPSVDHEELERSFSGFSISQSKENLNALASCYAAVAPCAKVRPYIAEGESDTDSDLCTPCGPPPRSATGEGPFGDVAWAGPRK
KCNQ2 enhance baseline: further read-out of KCNQ2 enhance, marked with its call; B-score; compound at 10 µM; measured here: initial fluorescence intensity artifact check;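 brightness before thallium and not channel activity; 0 = typical well and far values either way flag optical interference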
Starred values were filed as active, the others as inactive. A portion of the library (hit frequency here may not be typical).

Value order – KCNQ2 enhance, KCNQ2 enhance baseline
> CCCNC(=O)/C(C#N)=C1\N=C(NC(=O)c2cccs2)c2ccccc21
    1.2, 0.38
> Cc1ccc(NC(=O)CSCC(=O)Nc2ccc(N3CCOCC3)c(Cl)c2)cc1
    1, -1.7
> COc1ccc(-c2nc3ccccn3c2C=O)cc1
    0.18, 0.25
> C/C(=N\c1nc2ccccc2n1C)c1cc(Cl)ccc1O
    1.8, 0.12
> Cc1ccc(CN(c2ccc(C(=O)N3CCCC3)cc2)S(C)(=O)=O)cc1
    0.52, 1.4
> O=C(NCCNc1ccc([N+](=O)[O-])cc1)c1cccc2c(Br)cccc12
    0.59, -0.52
> O=C(Cn1cc(SCc2ccc(Cl)cc2)c2ccccc21)N1CCOCC1
    1.7, -1.7
> Cc1cc(NC(=O)Nc2cccc3ccccc23)no1
    0.13, -0.9
> COc1cc(C(=O)Sc2ccc(C)cc2)cc(OC)c1OC
    0.2, 1.3
> NC(=O)CCn1c(C(=O)c2cccc([N+](=O)[O-])c2)c2ccccc2[n+]1[O-]
    0.78, 0.2
> O=C1CCCC(O)=C1C=Nc1cccc(C(F)(F)F)c1
    1.1, 1.6
> COc1ccccc1C(=O)O/N=C(/c1ccncc1)c1ccc([N+](=O)[O-])cc1
    0.66, 1.1
> Cc1c(C)n(CCc2ccccc2)c2ncnc(NCCCO)c12
    3.5, 0.08
> O=C(CCCN1C(=O)C2C3C=CC(C3)C2C1=O)N1CCN(c2ccccc2)CC1 (stereo not given)
    0.02, -1.6
> CCc1cc2c(=O)c(-c3nc4ccccc4n3C)c(C)oc2c(CN2CCOCC2)c1O
    0.35, -2.1
> Cn1c(NCCO)nc2c1c(=O)n(Cc1cccc(Cl)c1)c(=O)n2C
    0.39, -0.84
> CCOc1cc(/C=C/c2cc(C(=O)O)c3ccccc3n2)ccc1O
    0.08, -2.9
> Cc1ccc(SCn2nnc3ccccc3c2=O)c(C)c1
    0.24, 0.29
> COc1cc(/C=C/C(=O)NCc2cccnc2)cc(OC)c1OC
    0.37, -0.63
> O=C(NS(=O)(=O)c1ccccc1)c1ccccc1O
    0.07, -0.06
> COc1cccc(NC(=O)c2cc([N+](=O)[O-])ccc2NCc2cccnc2)c1
    2.1, -0.47
> CCN(CC)c1ccc(/C=N/NC(=O)Cc2cccs2)c(O)c1
    0.06, 3.2
> O=C(CSc1ccccc1Cl)N1CCOCC1
    2.3, 0.31
> CCOC(=O)N1CCC(NC(=O)c2cc(S(=O)(=O)N(CC)CC)ccc2F)CC1
    0.09, -1.1
> CSc1cccc(NC(=S)N2CCC(N(C)C3CCCCC3C)CC2)c1 (stereo not given)
    1.6, 0.48
> Cn1c2ccccc2c2cnn(CC(=O)O)c(=O)c21
    0.01, 0.75
> CCc1ccc(OCc2n[nH]c(=S)n2C(C)CCCC(C)C)cc1 (stereo not given)
    1.4, -0.12
> O=C(Nc1ccccc1)c1cnc[nH]1
    0.94, -0.24
> CCC(=O)OC1(C)C(=O)C=C2C=C(c3ccc(C#N)cc3)OC=C2C1=O (stereo not given)
    0.09, 0.36
> c1ccc(-c2noc(-c3ccc4c(c3)OCO4)n2)nc1
    0.08, -0.2

(further entries)
Value order – KCNQ2 enhance, KCNQ2 enhance baseline
> CC(C)C(NC(=O)C1CCCCC1)C(=O)Nc1ccncc1 (stereo not given)
    1.6, -1.5
> O=C(N/N=C/c1ccc([N+](=O)[O-])o1)c1ccccc1NS(=O)(=O)c1cccs1
    0.14, 0.23
> Cc1ccc(/C=C2/SC(=S)N(CCC(=O)N3CCN(C)CC3)C2=O)cc1
    0.8, 0.08
> CC(NC(=O)CSc1nc2ccccc2c(=O)n1CCCO)c1ccccc1 (stereo not given)
    0.1, -0.7
> Cc1n[nH]c(=O)c2ccccc12
    1.5, -0.02
> Brc1cc(Br)c2nc3c(cc2c1)CCC3
    0.59, -1.6
> C#CCOCCOCCOCCNc1nc(N2CCN(C(=O)[C@H](CCC(=O)O)n3cc(C(N)CO)nn3)CC2)nc(N2CCN(C(=O)[C@H](Cc3ccc(O)cc3)n3cc(C(N)[C@H](C)CC)nn3)CC2)n1 (stereo not given in full)
    0.8, -0.26
> COc1ccc(NC(=O)CSc2ccc(C)cc2)cc1
    0.52, 0.46
> CCCCOc1ccc(C(=O)Nc2ccc(OCC(=O)N3CCOCC3)cc2)cc1
    0.15, -0.01
> CCCCC(=O)Nc1cc(C(=O)NCCc2ccccc2)ccc1Cl
    0.56, -1.3
> CC(=O)c1c(N2CCN(CCO)CC2)nc(=S)n(-c2ccccc2)c1C
    0.04, 0.1
> CCc1ccccc1NC(=O)c1cc(C2CC2)on1
    0.26, -1.1
> CCC(=O)Nc1nnc(SCCN2CCOCC2)s1
    0.12, 0.08
> CC1CCCCC1NC(=O)C1CC=CCC1C(=O)O (stereo not given)
    0.49, -0.33
> COc1ccc(/C=N/NC(=O)c2cccc(COCC(F)(F)C(F)F)c2)cc1
    0.6, -1.5
> CN1C(C(=O)NCCc2cccs2)CC2Cn3c(nc4cc(Cl)c(Cl)cc43)C21 (stereo not given)
    1.1, -0.76
> Cc1ccc(OCC(=O)Nc2ccncc2)cc1
    0.78, 0.86
> NC(=O)N/N=C/c1c(Sc2nnnn2-c2ccccc2)nc2ccccn2c1=O
    1.7, -3.7
> Cc1cc(NC(=O)CCCC(=O)N(CC(=O)NCCc2ccccc2)Cc2ccc(F)cc2)no1
    0.35, 0.02
> O=S(=O)(Nc1ccccn1)c1ccc(C(F)(F)F)cc1Cl
    1.2, 0.95
> COc1ccc(OC)c(NC(=O)c2ccc(CN3CCc4ccccc4C3)cc2)c1
    0.33, 0.32
> O=C(CSC1=NCCN1)Nc1cccc(C(F)(F)F)c1
    1.9, -0.56
> O=C(NCCc1ccccc1)c1cnc2ccccn2c1=O
    0.54, 0.8
> CCOc1ccc(N(CC(=O)NC2CCCCC2)S(=O)(=O)c2c(C)noc2C)cc1
    0.02, 0.73
> CCCc1nnc(NC(=O)CNc2ccc(F)cc2)s1
    0.97, -0.83
> COc1ccc(C(CNC(=O)C(CC(C)C)NS(=O)(=O)c2ccc(C)cc2)N2CCOCC2)cc1 (stereo not given)
    0.56, 0.65
> COc1ccc(C)cc1N(CC(=O)N1CCc2ccccc2C1)S(C)(=O)=O
    0.31, -0.04
> O=C(Cc1cn2ccsc2n1)Nc1nc2c(s1)CN(Cc1ccccc1)CC2
    0.07, 0.01
> COc1cccc(C(=O)N2CCN(S(=O)(=O)Cc3ccccc3)CC2)c1OC
    2, 0.14
> NC(=O)c1cc(-c2ccccc2)sc1NC(=O)CN1CCCCC1
    1.6, 0.38

(cont.)
Value order – KCNQ2 enhance, KCNQ2 enhance baseline
> CC(C(=O)c1c[nH]c(C(=O)N=CN(C)C)c1)c1ncc(C(F)(F)F)cc1Cl (stereo not given)
    0.71, 0.77
> CCCNC(=O)NS(=O)(=O)c1ccc(Cl)cc1
    0.77, -0.64
> CCCn1c(SCC(=O)Nc2ccc3c(c2)OCO3)nc2c1c(=O)n(C)c(=O)n2C
    0.51, 1.6
> Cc1cc(C)c(NC(=O)COC(=O)c2ccc([N+](=O)[O-])s2)c(C)c1
    0.69, -0.59
> O=C(Cc1ccc(F)cc1)NC1CCCC1
    1.1, -0.08
> COc1cccc(NC(=O)CN2C(=O)COc3ccc(S(=O)(=O)N4CCCCCC4)cc32)c1
    1.2, -1.3
> Cc1cccc(OCCOCCN2CCNCC2)c1C
    0.44, -0.09
> COc1cc2c(cc1OC)C(C1C(=O)CC(C)(C)CC1=O)N(C(=O)CCl)CC2 (stereo not given)
    0.21, 1.4
> C=CCSC1=C(C#N)C(c2cccc(OC)c2)CC(=O)N1 (stereo not given)
    1.1, -0.42
> NC(=O)c1ccc(NC(=O)CSc2nnc(C3CCCCC3)n2N)cc1
    1.1, 0.97
> OC1(c2cccs2)CN(c2ccccc2)C2=[N+]1CCCC2 (stereo not given)
    0.06, 0.27
> CCOC(=O)Cc1c(C)nc2cc(C)nn2c1C
    0.14, 2.6
> Cc1cccc(C(=O)Nc2nnc(-c3ccc(C(C)(C)C)cc3)s2)c1
    0.88, -0.4
> Cc1cc(=O)oc2c(C)c(OC(C)C(=O)NCc3ccccn3)ccc12 (stereo not given)
    0.5, -2.8
> Cc1cc(S(=O)(=O)NCc2cccnc2)ccc1-n1cnnn1
    0.03, 1.7
> COc1ccccc1C1C(C(N)=O)=C(C)Nc2nc(-c3ccc(Cl)cc3)nn21 (stereo not given)
    0.44, 0.5
> COCCn1c(SCC(=O)Nc2ccc(OC)cc2OC)nc2ccccc2c1=O
    0.76, -0.19
> O=C(O)c1ccc(CP(=O)(c2ccccc2)c2ccccc2)cc1
    0.22, -0.32
> C[N+]1(CCOc2ccc([N+](=O)[O-])cc2)CCOCC1
    0.66, 0.15
> O=S(=O)(Nc1ncccn1)c1ccc(NC(=S)N2CCN(c3cccc(C(F)(F)F)c3)CC2)cc1
    3.6, -1.6
> Cc1ccccc1NC(=O)CN1C(=O)CSc2ccccc21
    1, -1.3
> Cc1ccc(C)c(S(=O)(=O)N2CCN(C(=O)Nc3ccccc3)CC2)c1
    1.9, -0.55
> Cc1cc(N(CN2CCCC2=O)C(=O)c2ccc(F)cc2)no1
    1, 1.2
> Cc1cc(NCc2ccccc2)c2ccccc2n1
    1.3, -0.95
> O=C(O)c1ccc(NS(=O)(=O)c2ccc3c(c2)C(=O)c2ccccc2C3=O)cc1
    0.34, 0.44
> O=C1NC(c2ccccc2)=NC1(Nc1ccccn1)C(F)(F)F (stereo not given)
    0.02, 0.84
> CCC(=O)NC(Nc1nc(C)cs1)(C(=O)OC)C(F)(F)F (stereo not given)
    0.08, 0.04
> CCN(CC#CCC(O)(c1ccccc1)c1ccccc1)C(C)C
    0.03, 1.6
> O=c1c2oc3nc4c(cc3c2ncn1CCCc1ccccc1)CCCC4
    1.4, -0.03
> O=C(c1cccc([N+](=O)[O-])c1)c1ccc2c(c1)OCCOCCOCCO2
    1.5, 1.5

Further structures follow.
Compound,KCNQ2 enhance,KCNQ2 enhance baseline
CCCCn1c(CCC(=O)O)ccc1-c1cccs1,0.55,-2.7
CN(CC(=O)O)Cc1nc2ccccc2[nH]1,0.56,0.12
C=Cc1c(C)c2cc3[nH]c(cc4nc(cc5nc(cc1[nH]2)C(C)=C5CCC(=O)O)C(CCC(=O)O)=C4C)c(C)c3C=C,3.3,-0.35
COC(=O)Nc1c(-c2ccccc2)nc2ccc(C)cn12,1.1,1.1
Cc1cccc(-n2ccnc2SCC(=O)Nc2nnc(C)s2)c1,0.24,0.78
COc1ccccc1OCCNC(=O)Nc1cc(F)c(F)cc1Cl,0.53,0.25
O=C(C1CCN(c2nnc(-n3cccc3)s2)CC1)N1CCN(Cc2ccc3c(c2)OCO3)CC1,0.15,-0.55
C/C(=N\NC(N)=S)c1ccncc1,0.19,0.89
CCC1CCc2c(sc3nc(SCC(=O)NCc4ccco4)n(-c4ccccc4)c(=O)c23)C1 (stereo not given),0.02,1.5
CCOc1cccc(/C=N/NS(=O)(=O)c2ccc(C)c([N+](=O)[O-])c2)c1O,1.1,0.11
Cc1occc1C(=O)n1cnc2ccccc21,0.73,4.3
O=C(Nc1cccc(S(=O)(=O)NC2=NCCCCC2)c1)c1cc(-c2ccncc2)nc2ccccc12,0.45,0.01
CCOC(=O)c1ccc(NC(=O)COc2cc3oc(=O)c(CC(C)O)c(C)c3cc2Cl)cc1 (stereo not given),0.28,-0.02
Cc1ccc(C)c(OCc2nc3ccc(S(=O)(=O)Nc4c(C)n(C)n(-c5ccccc5)c4=O)cc3[nH]2)c1,1.9,-1.3
COc1ccc(CCNC(=O)CCCn2nc(C)c([N+](=O)[O-])c2C)cc1OC,1.1,0.86
O=[N+]([O-])c1ccc(-c2cc(-c3ccc(Cl)cc3)n[nH]2)cc1,0.17,1.8
CCN(CC)CCNC(=O)CCCCCn1c(=O)[nH]c2cc(C(=O)OC)ccc2c1=O,0.17,0.01
COc1ccc(NC(=O)CCCn2c(=O)[nH]c3ccccc3c2=O)cc1,0.22,-1.6
COC(=O)Oc1ccc(/C=N/NC(=O)CN(c2ccccc2Br)S(C)(=O)=O)cc1OC,2.6,0.31
Cc1ccc(CN2CC(C(=O)N3CCN(c4ccccc4O)CC3)CC2=O)cc1 (stereo not given),1.9,2.2

In the list so far, these have a CF3 group:
Compound,KCNQ2 enhance,KCNQ2 enhance baseline
O=C1CCCC(O)=C1C=Nc1cccc(C(F)(F)F)c1,1.1,1.6
O=S(=O)(Nc1ccccn1)c1ccc(C(F)(F)F)cc1Cl,1.2,0.95
O=C(CSC1=NCCN1)Nc1cccc(C(F)(F)F)c1,1.9,-0.56
CC(C(=O)c1c[nH]c(C(=O)N=CN(C)C)c1)c1ncc(C(F)(F)F)cc1Cl (stereo not given),0.71,0.77
O=S(=O)(Nc1ncccn1)c1ccc(NC(=S)N2CCN(c3cccc(C(F)(F)F)c3)CC2)cc1,3.6,-1.6
O=C1NC(c2ccccc2)=NC1(Nc1ccccn1)C(F)(F)F (stereo not given),0.02,0.84
CCC(=O)NC(Nc1nc(C)cs1)(C(=O)OC)C(F)(F)F (stereo not given),0.08,0.04

(listing goes on)
Compound,KCNQ2 enhance,KCNQ2 enhance baseline
CCCCN1C(=O)C2C(C(=O)Nc3cccc(OC)c3)C3C=CC2(O3)C1C(=O)NC1CCCCC1C (stereo not given),0.8,1.2
O=C(c1ccc(=O)[nH]c1)N1CCN(S(=O)(=O)c2ccc(Cl)cc2)CC1,1.1,-0.56
Cc1ccc(/C=C/C(=O)O)cc1S(=O)(=O)N1CCCCC1,0.03,2.9
Cc1[nH]c2ccccc2c1CN1CCC(CO)(Cc2ccccc2)CC1,1,0.79
CC(C)(C)N1OC2CC1c1nc3ccccc3n1C2 (stereo not given),0.31,0.72
Cc1c(C(=O)N(Cc2nccn2C)C(C)C)oc2c(F)cccc12,0.43,-0.03
Cc1cc(C)nc(N2CCC(C(=O)NCc3ccco3)CC2)n1,0.65,0.17
CC(C(=O)OCC(=O)c1cccc([N+](=O)[O-])c1)N1C(=O)C2C3C=CC(C3)C2C1=O (stereo not given),0.12,-0.38
COc1ccc(CN(CC2CCCO2)C(=O)c2cc3ccccc3oc2=O)cc1 (stereo not given),1.1,0.85

Screening data from PubChem BioAssay.
